Bead autofluor: compound fluorescence in toxin protease inhibitor counterscreen. AID 624483. fluorescence intensity (no concentration beside the values). 3.1% of 360,000 active. compound autofluorescence counterscreen, microsphere flow cytometry; stronger effect = higher value;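 active means at least 3 SD above the mean of all compounds, about 16000 in these data; inconclusive means too few beads counted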;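 further: 100 nL of 1 mM stock went into each well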
PrP 5UTR inh: inhibition of PrP 5' UTR reporter expression; inhibition, % (no concentration beside the values); 0.35% of 340,000 active; cell-based PrP 5' UTR mRNA reporter, plate reader; AID 488862, 2010;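 active means every replicate at 50% or more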;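 further: 0 = median of the neutral control wells; tested in H4 reporter cells; numbers are from one replicate; inactives centre near -14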
Mtb hypoxia inh: PubChem AID 1159583. M. tuberculosis hypoxia-regulated fluorescent reporter, fluorescence. fluorescence inhibition, % (test concentration not listed). 0.1% of 300,000 active;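 active means 35 to 45% if threefold the growth effect, above 45% if 1.5-fold the growth effect; inactive means the rest, general growth blockers included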;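 further: wells of about 50 µL received 100 nL stock; 0% = vehicle wells and 100% = reference inhibitor wells; whole bacteria with a GFP reporter of the hypoxia response; strong numbers were not always called active; many hits fall short of the cut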
Sa RN4220 lethal: growth inhibition of S. aureus RN4220, primary screen, OD600; 16 h; inhibition, % (test concentration not listed); 0.33% of 330,000 active;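 active means z-score of -3 or lower and OD600 up to 0.18 on both plates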;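 further: plate controls were untreated cells for no effect and reference antibiotic for full effect; stock transfer was 100 nL into about 80 µL; one replicate is shown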
Sa ugtP lethal: growth inhibition of ugtP-null S. aureus, primary screen, RN4220 ugtP deletion, OD600; growth inhibition, % (concentration not given with the values); 0.54% of 330,000 active; 16 h; some inactives read as strong as hits;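 active means z-score under -3 and OD600 up to 0.15 on both plates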;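 further: plate controls were untreated wells for no effect and antibiotic for full effect; wells of about 80 µL received 100 nL stock; the first replicate is given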
BJeLR lethal: MLPCN primary cell-based screen for lethality selective to Ras in HRASV12 cells; BJeLR (HRASV12) viability, CellTiter-Glo ATP luminescence, 48 h; reference of the scale not given here; inhibition, % (no concentration beside the values); 0.17% of 300,000 active;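 active means replicate mean above 50%; inconclusive means above 50% but judged a plate artefact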;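 further: 50 nL library stock added to about 25 µL; numbers are from one replicate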
Mtb hypoxia inh growth: recorded beside Mtb hypoxia inh, whose call it bears; growth inhibition, %; measured here: M. tuberculosis growth (absorbance);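 0% = vehicle and 100% = reference antibiotic; read after six days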
* marks the source's active call; other numbers are inactive results; ? = inconclusive; / = no result given.

| structure | Bead autofluor | PrP 5UTR inh | Mtb hypoxia inh | Mtb hypoxia inh growth | Sa RN4220 lethal | Sa ugtP lethal | BJeLR lethal |
| --- | --- | --- | --- | --- | --- | --- | --- |
| c1ccc(N=Nc2ccc3cccccc2-3)cc1 | 4151 | -79 | 4 | 1 | 15 | 95* | 0 |
| COc1cc(NC(=O)C(C)C)ccc1NC(=O)c1ccco1 | 7366 | -114 | 11 | 4 | 3.6 | 13 | 0 |
| COc1ccccc1N1C(=O)CC(Sc2nc(C)cc(C)n2)C1=O (configuration not stated) | 12433 | 0 | 3 | 4 | 6.6 | 4 | 4 |
| Fc1ccc(CNCCc2c[nH]c3ccccc23)cc1 | 3482 | -32 | -1 | -5 | -1.6 | 1 | -8 |
| COc1ccc(NC(=O)COC(=O)C2CCN(S(=O)(=O)c3cccs3)CC2)cc1 | 4284 | -25 | 1 | -1 | 2.2 | 12 | 4 |
| COc1ccc(CNCCC(c2ccc(OC(C)C)cc2)c2ccccc2OC)cc1OC (configuration not stated) | 4518 | -29 | 16 | 11 | -2.5 | -12 | 6 |
| Cc1ccc(S(=O)(=O)/C(C#N)=C/c2c(N3CCN(Cc4ccccc4)CC3)nc3ccccn3c2=O)cc1 | 5602 | -6 | 14 | 10 | -0.8 | 8 | 0 |
| Cc1ccc(S(=O)(=O)N2CCOCC2)cc1C(=O)N1CCN(S(=O)(=O)c2cccc(F)c2)CC1 | 5700 | 4 | 2 | 2 | 3.2 | 2 | / |
| CCOC(=O)c1c(NC(=O)COC(=O)CCOc2ccc(C)cc2)sc(C(=O)N(C)C)c1C | 5909 | -9 | 3 | 0 | 2.3 | 2 | -12 |
| CCCOc1ccc(N2C(=O)CC(N3CCN(c4ccc([N+](=O)[O-])cc4)CC3)C2=O)cc1 (configuration not stated) | 3769 | -22 | 16 | 8 | 5.7 | 7 | -1 |
| COc1ccc(NC(=O)C2CC2)cc1S(=O)(=O)N1CCOCC1 | 3999 | -11 | 4 | -2 | 3.9 | 4 | / |
| CCOC(=O)c1c(C)c(C(=O)NC2CCCCCC2)c(C)n1C | 21622* | -19 | 4 | 4 | 4.0 | 2 | / |
| COC(=O)c1ccc(C=NN2CCN(Cc3ccccc3Cl)CC2)cc1 | / | / | 10 | 15 | 4.2 | 6 | / |
| CCC1(c2ccccc2)NC(=O)N(CC(=O)Nc2nnc(C3CC3)s2)C1=O (configuration not stated) | 5444 | -4 | 0 | 4 | 1.8 | 8 | -7 |
| CC(C)(NO)/C(=N/O)c1cccs1 | 2332 | -9 | / | / | / | / | -7 |
| COc1cc(/C=N/NC2=NS(=O)(=O)c3ccccc32)cc(OC)c1OC | 3547 | -19 | / | / | / | / | 9 |
| CC(=C/c1ccccc1)/C=N/NC(=O)c1cc(C)oc1C | 8712 | -29 | / | / | / | / | 10 |
| Cn1c(-c2ccc(Cl)nc2)nc2cc(Cl)ccc21 | 3515 | -15 | 8 | 5 | 2.2 | 6 | 8 |
| CCOc1ccc(NC(=O)CC2SC(=O)N(c3ccccc3)C2=O)cc1 (configuration not stated) | 4099 | -9 | -6 | -11 | 5.7 | 19 | -3 |
| Cc1cccc(N(CC(=O)NC2CCCC2)C(=O)c2nsc(Cl)c2Cl)c1C | 4662 | -5 | 7 | -1 | 3.8 | 2 | 0 |
| Cc1ccc(C(=O)N/C(=C/c2ccccc2F)C(=O)NCCCn2ccnc2)cc1 | 5372 | -7 | 8 | 1 | -1.1 | 3 | 11 |
| COc1ccc(CN2CCN(CC(=O)Nc3ccccc3C(=O)NC3CC3)CC2)cc1F | 19106* | -8 | 7 | 3 | 2.8 | 5 | / |
| COC(=O)C1Cc2ccccc2CN1S(=O)(=O)c1ccc(C)cc1 (configuration not stated) | 3884 | -18 | 7 | 8 | 2.7 | 11 | 6 |
| S=c1[nH]c2cc(Cl)ccc2s1 | 10816 | -15 | 14 | 3 | 6.8 | -3 | 3 |
| O=C(c1ccc2ccccc2c1)N1CCN(c2ccccn2)CC1 | 4229 | -28 | 7 | -1 | 4.9 | 7 | -1 |
| CCN(CC)c1ccc(C=NNC(=O)CNC(=O)c2ccccn2)cc1 | / | / | / | / | 6.4 | -7 | / |
| NC(=O)NN=Cc1ccccc1OC(=O)c1ccccc1Br | / | / | 8 | -2 | 7.2 | 6 | / |
| O=C(COc1ccc2ccccc2c1)N1c2ccccc2Sc2ccccc21 | 22677* | 0 | 5 | -3 | -1.2 | 43 | 10 |
| COc1ccc(C(=O)NC(=S)NNC(=O)c2ccc3ccccc3n2)cc1 | 2903 | 21 | 19 | 17 | 18 | -25 | 11 |
| COc1cccc(NC(=O)COC(=O)COc2cccc3c2OC(C)(C)C3)c1 | 6134 | -20 | -7 | -8 | -0.6 | -1 | -1 |
| COc1ccc(-c2nn(-c3ccccc3)cc2C(=O)NCCCn2ccnc2)cc1 | 6963 | -38 | 1 | -5 | 1.3 | 8 | -4 |
| Cc1nc(C)c(-c2csc(NCc3ccco3)n2)s1 | 11410 | -39 | 4 | 6 | 1.8 | -4 | 6 |
| CCc1cccc(NC(=O)c2ccc(Cn3nc(C)cc3C)o2)c1 | 1966 | -9 | 6 | 0 | 2.2 | -13 | 2 |
| COC(=O)c1ccccc1NC(=O)CCn1c(=O)oc2ccccc21 | 4008 | -14 | 4 | -1 | 2.0 | 5 | 0 |
| O=c1cnnc(NN=Cc2ccccn2)[nH]1 | / | / | 4 | 5 | 0.7 | 3 | / |
| O=C(NCc1ccccc1)C(c1cccs1)N(C(=O)c1csnn1)C1CC1 (configuration not stated) | 21285* | -31 | -1 | 3 | 5.0 | 3 | 8 |
| Cc1ccc2c(c1)cc(CN(Cc1ccco1)S(=O)(=O)c1ccccc1)c1nnnn12 | 9939 | -16 | 10 | 10 | 5.1 | -8 | 4 |
| Cc1ccc(NC(=O)CCC(=O)N2CCOc3ccccc32)c(Cl)c1 | 5863 | -15 | 4 | 3 | 6.1 | 7 | 16 |
| O=C(COC(=O)c1ccc(O)cc1)Nc1cc(S(=O)(=O)N2CCOCC2)ccc1Cl | / | 8 | 11 | 3 | 7.6 | 10 | / |
| COCCCNC(=O)c1c(F)c(F)c(F)c(F)c1F | 3339 | -6 | 9 | 3 | 3.1 | 0 | 1 |
| CCOC(=O)c1nn(-c2ccccc2C)c(=O)c2c(N)scc12 | 3947 | -75 | 3 | 0 | -0.5 | 15 | 0 |
| CCN(CC)C(=O)c1ccc(NS(=O)(=O)c2ccc3[nH]c(=O)[nH]c3c2)cc1 | 5870 | -4 | 11 | 7 | 2.3 | 3 | -2 |
| CCN(CC)c1ccc(C(=O)OCC(=O)Nc2cccc(S(=O)(=O)NC3=NCCCCC3)c2)cc1 | 2461 | 3 | 2 | 7 | -1.4 | -2 | 6 |
| COc1ccc(CC(=O)Nc2ccc(OC)c(NC(=O)c3ccco3)c2)cc1 | 4786 | -11 | / | / | -3.0 | -2 | 3 |
| CC1CC(=Cc2ccc([N+](=O)[O-])cc2)C(=O)O1 (configuration not stated) | 2989 | -9 | 5 | 14 | 7.5 | 10 | / |
| CCOC(=O)CCP(=O)(O)C(O)(c1ccccc1)c1ccccc1 | 10285 | -27 | 2 | 6 | 2.3 | 1 | 13 |
| CC(=O)N(CN1C(=O)C2CC=CCC2C1=O)c1cccc(Cl)c1 (configuration not stated) | 2042 | -18 | / | / | 4.1 | -5 | 9 |
| O=C(CN1CCN(Cc2ccccc2)CC1)N/N=C/c1ccc(Br)s1 | 6402 | -12 | / | / | / | / | -1 |
| O=C(Nc1ccccc1N1CCN(c2ccc(F)cc2)CC1)C1CCCCC1 | 3297 | -10 | 7 | 0 | 0.2 | 5 | -1 |
| c1ccc(CSc2nnc(-c3cccs3)o2)cc1 | 6827 | -246 | / | / | -1.6 | 7 | -8 |
| CC1=NN(c2ccccc2)C(=O)/C1=C\c1cc(C)n(-c2cccnc2)c1C | 5817 | -24 | 1 | -8 | -1.3 | -4 | -10 |
| COC(=O)c1cn(NC(=O)C2CCCCC2)c(=O)c2ccccc12 | 3810 | -33 | 10 | 13 | 5.2 | -3 | 4 |
| CCCOc1ccc(N2C(=O)C/C(=C\c3ccccc3)C2=O)cc1 | / | / | 5 | 10 | 3.1 | 4 | 0 |
| CC1NC(=O)NC1CCCCCC(=O)NCCc1ccccc1 (configuration not stated) | 4883 | -13 | 8 | -4 | 3.7 | 7 | 3 |
| N#Cc1nc(COc2ccccc2Cl)oc1N1CCCCCC1 | 5386 | -12 | 10 | 14 | 4.3 | 6 | 1 |
| COC(=O)CNC(=O)COC(=O)c1ccc(Cl)nc1 | 4480 | -20 | 1 | 18 | 9.3 | 4 | -10 |
| CCC(C)(C)NC(=O)C(c1cccn1C)N(C(=O)Cn1nnc2ccccc21)c1ccc(NC(C)=O)cc1 (configuration not stated) | 4549 | -19 | -12 | 4 | 2.2 | 1 | 1 |
| O=C(CN1CCN(CC(=O)Nc2ccc(F)cc2)CC1)NCC1(N2CCOCC2)CCCCC1 | 8297 | -22 | 1 | 2 | 2.5 | 3 | / |
| CCOC(=O)N1CCN(C(=O)c2ccc(OC)c(S(=O)(=O)N3CCOCC3)c2)CC1 | 3321 | -9 | 10 | 10 | 2.7 | 3 | 0 |
| CCCC(=O)NC(NC(=S)Nc1ccc(S(N)(=O)=O)cc1)C(Cl)(Cl)Cl (configuration not stated) | 2671 | -16 | -2 | 2 | 6.3 | 7 | 4 |

Some of the entries above in another layout:
Results follow in this order: Bead autofluor | PrP 5UTR inh | Mtb hypoxia inh | Mtb hypoxia inh growth | Sa RN4220 lethal | Sa ugtP lethal | BJeLR lethal
O=C(COc1ccc2ccccc2c1)N1c2ccccc2Sc2ccccc21
 : 22677* | 0 | 5 | -3 | -1.2 | 43 | 10
c1ccc(CSc2nnc(-c3cccs3)o2)cc1
 : 6827 | -246 | / | / | -1.6 | 7 | -8
CCOC(=O)CCP(=O)(O)C(O)(c1ccccc1)c1ccccc1
 : 10285 | -27 | 2 | 6 | 2.3 | 1 | 13

(list continues)
| structure | Bead autofluor | PrP 5UTR inh | Mtb hypoxia inh | Mtb hypoxia inh growth | Sa RN4220 lethal | Sa ugtP lethal | BJeLR lethal |
| --- | --- | --- | --- | --- | --- | --- | --- |
| CCc1nnc(NC(=O)c2cc(S(=O)(=O)N3CCCCC3)ccc2N2CCOCC2)s1 | 4283 | -12 | 1 | 5 | 0.6 | -14 | -24 |
| CCN(CC)S(=O)(=O)c1cc(NC(=O)Cn2cnc3ccccc3c2=O)ccc1C | 16361* | -18 | 2 | -1 | -1.0 | 4 | -1 |
| Cc1nn(C)cc1/C=N\NC(=O)c1csc2c1CCCC2 | 6118 | -41 | / | / | / | / | -4 |
| CCN(CC)CCOC(=O)C1c2ccccc2Oc2ccccc21 | 5813 | -16 | 9 | 8 | 6.6 | 8 | -9 |
| COc1ccccc1-n1nnnc1SC(C)C(=O)NC1CCCC1 (configuration not stated) | ? | -8 | 4 | 3 | 1.9 | 9 | 11 |
| Cc1ccc(OCC(=O)NCCS(=O)(=O)N2CCN(c3ccccc3)CC2)cc1 | / | -19 | -7 | 2 | 2.7 | 0 | 3 |
| CCn1ccnc1CN1CCCC(C(=O)c2cccc(C(F)(F)F)c2)C1 (configuration not stated) | 3174 | -8 | 12 | 9 | 3.5 | 7 | 14 |
| COc1ccc(C(=O)COC(=O)c2sc(C)nc2C)cc1OC | 2921 | -8 | -1 | -5 | 2.7 | 2 | / |
| CCn1c(CC(=O)Nc2ccc(C)cc2)nnc1SCC(=O)Nc1nc(C)cs1 | 2912 | -9 | 4 | -7 | 3.5 | 3 | -7 |
| CCOC(=O)CN(c1ccccn1)S(=O)(=O)c1ccccc1 | 4527 | 3 | 18 | 5 | 2.4 | 0 | 2 |
| Cc1c(-c2ccc(Cl)cc2)[n+](=O)c2c(n1[O-])CCCC2 | 3668 | -1 | 3 | 8 | -0.3 | 4 | 1 |
| COc1ccc2[nH]c(C(=O)N/N=C/c3ccccc3OC)cc2c1 | 3869 | -27 | / | / | / | / | 13 |
| CC(C)C(=O)N[C@@H]1c2ccccc2CC[C@H]1OCc1ccccc1 | 3854 | -13 | -4 | -1 | 1.9 | -2 | / |
| CCn1cc(C(=O)NCCCN2CCCC(C)C2)c(=O)c2cc(S(=O)(=O)N3CCc4ccccc4C3)ccc21 (configuration not stated) | 4614 | -22 | -1 | 4 | 3.0 | -3 | 3 |
| CCOC(=O)c1cnc2nc(C)nn2c1N | 3268 | -19 | / | / | / | / | 0 |
| Cc1c(Br)c([N+](=O)[O-])nn1CC(=O)Nc1cccc2nonc12 | 5536 | -16 | 9 | 10 | 12 | 5 | 4 |

High-throughput results: PubChem BioAssay, several laboratories
